Pol iota inh = qHTS for Inhibitors of Polymerase Iota; DNA polymerase iota (Homo sapiens), Q9UNA4; Pol iota fluorescent replication assay, 10 min; Potency, µM (series often up to 115 µM), inactives show top-dose activity, negative = inhibition, usual class: inhibitors; 390,000 compounds, 1% hits
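Pol iota at 10 nM preincubated 15 min with compounds at room temperature; reaction started with fluorescent substrate, 50 nM final. Fluorescence read kinetically at 0 and 10 min; buffer-only wells as negative control.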
Pin1 inh = qHTS Assay to Find Inhibitors of Pin1. Potency, µM (titrated, usually from 115 µM), without a hit: at the top dose activity, negative = inhibition, usual class: inhibitors. AID 504891, 2011. 390,000 compounds, 0.009% hits. Pin1 FP peptide displacement, HiFluor488, 10 min; active = well fitted inhibition curve with a large enough effect in the polarisation, with a control signal flat, not every such curve was filed as active; inconclusive = small, poorly fitted or top-dose-only effect, or effect the other way, or a change in a side signal; inactive = no such curve, though single readings can be large or run the other way; the % refers to the polarisation; note: % is set by controls: 0 for no effect and ±100 for the full control effect
Target sequence (Q13526 whole entry, looked up): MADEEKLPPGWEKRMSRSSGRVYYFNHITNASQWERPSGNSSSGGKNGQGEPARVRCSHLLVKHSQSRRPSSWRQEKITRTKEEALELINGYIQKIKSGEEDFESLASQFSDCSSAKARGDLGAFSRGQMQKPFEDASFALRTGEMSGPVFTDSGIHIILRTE
HP1b binding inh = HTS for Inhibitors of HP1-beta Chromodomain Interactions with Methylated Histone Tails; AID 540317, 2011; Potency, µM (doses to about 114 µM), for inactives: top-dose activity change, negative = inhibition, most hits filed as inhibitors; 390,000 compounds, 0.56% hits; AlphaScreen HP1-beta / biotin-H3K9me3 peptide binding; note: nearly all actives have a fitted effect of over 70% in size; inactives centre near 23
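HP1-beta protein (50 nM final) preincubated 30 min at room temperature with biotinylated H3(1-18)K9me3 peptide (50 nM) in PBS pH 7.4, 0.01% Tween-20, then compound added for 30 min. AlphaScreen streptavidin donor/nickel chelate acceptor beads (10 ug/mL final), 30 min dark, luminescence read.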
BLM inh = qHTS Assay for Inhibitors of Bloom's syndrome helicase (BLM). RecQ-like DNA helicase BLM (Homo sapiens), P54132. recombinant BLM DNA unwinding, fluorescence dequenching. Potency, µM (titrated, usually from 56.1 µM), for inactives: at the top dose activity change, negative = inhibition, hits mostly inhibitors. 350,000 compounds, 0.2% hits;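 note: plate controls were vehicle for no effect and no enzyme for full effect; nearly all actives have a fitted effect of over 35% in size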
G9a block = qHTS Assay for Inhibitors of Histone Lysine Methyltransferase G9a; Histone-lysine N-methyltransferase EHMT2 (Homo sapiens), Q96KQ7; AID 504332, 2011; Potency, µM (doses to about 102 µM), for inactives: at the highest dose activity, negative = inhibition, usual class: inhibitors; G9a H3K9 monomethylation, AlphaScreen, 2 h; 350,000 compounds, 8.8% hits; note: % is set by controls: 0 for no effect and ±100 for the full control effect; nearly all actives have a fitted effect of over 75% in size
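G9a (20 nM) was preincubated 15 min with compound, then reacted 2 h at room temperature with 500 nM biotin-H3K9 peptide and 20 µM SAM. Monomethyl-H3K9 detected by AlphaScreen using anti-H3K9me1 antibody.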
Tb PGK inh = qHTS Assay to Find Inhibitors of Phosphoglycerate Kinase; 380,000 compounds, 0.043% hits; PGK/GAPDH coupled, Kinase-Glo luminescence, 60 min; Potency, µM (highest dose often 57.5 µM), for the others: top-dose activity change, negative = inhibition, hits mostly inhibitors; Phosphoglycerate kinase, glycosomal (Trypanosoma brucei brucei), P07378; note: % is set by controls: 0 for no effect and ±100 for the full control effect; nearly all actives have a fitted effect of over 60% in size
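Recombinant glycosomal PGK reaction used 1,3-bisphosphoglycerate generated in-well by GAPDH (100nM final) in 100mM TEA pH 7.6, 5mM MgCl2, 0.01% Tween-20. After 60 minutes at room temperature, ATP was read by Kinase-Glo Plus luminescence end-point.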
GLS inhibitor = qHTS for Inhibitors of Glutaminase (GLS); Potency, µM (top dose mostly 45.5 µM), for inactives: at the highest dose activity change, negative = inhibition, hits mostly inhibitors; Glutaminase kidney isoform, mitochondrial (Homo sapiens), O94925; 410,000 compounds, 0.21% hits; GLS enzymatic activity, qHTS titration; note: % is set by controls: 0 for no effect and ±100 for the full control effect
Target sequence (O94925 whole entry, looked up, canonical isoform): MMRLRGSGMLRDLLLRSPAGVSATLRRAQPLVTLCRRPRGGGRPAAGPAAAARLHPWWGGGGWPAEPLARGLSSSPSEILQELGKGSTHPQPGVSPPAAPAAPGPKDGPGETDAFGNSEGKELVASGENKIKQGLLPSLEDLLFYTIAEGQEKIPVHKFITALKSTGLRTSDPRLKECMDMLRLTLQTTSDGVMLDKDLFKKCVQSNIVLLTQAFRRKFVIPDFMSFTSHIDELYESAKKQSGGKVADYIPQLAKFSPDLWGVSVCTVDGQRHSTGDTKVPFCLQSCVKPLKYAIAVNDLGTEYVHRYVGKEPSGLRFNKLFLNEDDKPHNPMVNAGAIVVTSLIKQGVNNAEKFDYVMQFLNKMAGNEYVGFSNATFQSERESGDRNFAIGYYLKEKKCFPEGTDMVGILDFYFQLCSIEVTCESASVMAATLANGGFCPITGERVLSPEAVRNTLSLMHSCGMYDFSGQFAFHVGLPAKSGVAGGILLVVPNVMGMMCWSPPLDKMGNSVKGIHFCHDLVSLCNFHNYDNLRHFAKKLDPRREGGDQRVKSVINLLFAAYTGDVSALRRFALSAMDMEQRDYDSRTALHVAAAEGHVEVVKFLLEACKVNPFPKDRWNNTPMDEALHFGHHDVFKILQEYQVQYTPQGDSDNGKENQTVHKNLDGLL
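Assay buffer: 45 mM KH2PO4 pH 8.2, 0.02% Tween-20. hKGA acts on L-glutamine (1 mM solution added); product glutamate is reported by an oxidase/peroxidase Amplex Red coupling, with fluorescence taken at baseline and 30 min.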
JMJD2A Tudor inh = qHTS Assay for Inhibitors of JMJD2A-Tudor Domain; 390,000 compounds, 4.4% hits; Lysine-specific demethylase 4A (Homo sapiens), O75164; Potency, µM (doses to about 114 µM), without a hit: at the highest dose activity change, negative = inhibition, actives largely listed as inhibitors; AlphaScreen JMJD2A-Tudor / H3K4me3 peptide binding; note: % is set by controls: 0 for no effect and ±100 for the full control effect; nearly all actives have a fitted effect of over 50% in size
Starred values were filed as active, the others as inactive; i = inactive; ? = inconclusive; nt = no result given; [ ] = dose if it differs, or a comment. Unless noted, calls come from the whole dose curve; as a rule, active = well fitted curve in the direction sought with a large enough effect; inconclusive = small, poorly fitted or top-dose-only effect, or another doubt; inactive = no such curve, though single readings can be large; an effect the other way counts as inactive or inconclusive. Potency is the fitted concentration of half-maximal effect. Some of the compounds tested; rates above refer to the full screens.

SMILES	Pol iota inh	Pin1 inh	HP1b binding inh	BLM inh	G9a block	Tb PGK inh	GLS inhibitor	JMJD2A Tudor inh
CC(C)c1ccc(NC(=O)C(c2ccccc2)N2CCN(C(=O)c3ccco3)CC2)cc1 (configuration not stated)	?	31%[activator]	23%	0%	2%[0.0925 µM]	1%	3%	-28%
CCCn1nc(NC(=O)c2cccs2)c2cc3ccc(C)cc3nc21	-7%	9%	108%[activator]	-8%	6%	-6%	-11%	35%[activator]
Cc1cccc(-c2noc(CN(C(=O)c3ccc(Br)o3)C(C)C)n2)c1	-3%	15%	?	-17%	?	-10%	4%	-7%
COCC(C)NS(=O)(=O)c1ccc(NC(=O)C(Cc2ccccc2)NC(N)=O)cc1 (configuration not stated)	1%	-10%	-11%	-2%	?	-8%	-2%	?
CCCCCCOC(=O)C(C#N)c1nc2ccccc2nc1N1CCN(CC)CC1 (configuration not stated)	10%	-9%	-24%	1%	nt	9%	5%	?
CCC(c1nnc(SCC(=O)NC23CC4CC(CC(C4)C2)C3)o1)N(C)C (configuration not stated)	5%	-6%	41%	-3%	9%[59 µM]	-3%	7%	-3%
O=C1C(=O)N(CCN2CCOCC2)C(c2ccccn2)/C1=C(/O)c1ccc(Cl)cc1 (configuration not stated)	-8%	-1%	-14%	-6%	7.9µM*	i	-22%	-12%[11.4 µM]
O=C(O)c1ccc(NS(=O)(=O)c2cccc3cccnc23)cc1	6%	-1%	55%[activator]	-3%	?	9%	-3%	-14%
O=C(CN1CCc2cc3c(cc2C1)OCCCO3)Nc1cccc([N+](=O)[O-])c1	93%[activator]	0%	-1%	-12%	40µM*	1%	?	-29%
CC1=Nc2cc(C(=O)NC3CCC(C)CC3)ccc2Sc2c(C)ccc(C)c21 (configuration not stated)	27%	8%	37%	-10%	?	-4%	4%	-15%
COc1ccc(S(=O)(=O)N(CC(=O)NCCCN(C)C)c2ccc(C)cc2)cc1OC	-1%	1%	27%	-11%	14%	-9%	5%	-19%
O=S(=O)(c1ccc(F)cc1)N1CCCC(CO)C1 (configuration not stated)	16%	-1%	32%	-2%	-19%	i	-3%	-6%
CCOc1ccc(N2C(=O)C3ON(c4ccccc4)C(c4ccco4)C3C2=O)cc1 (configuration not stated)	32%[activator]	-15%	50%[activator]	-8%	35µM*	1%	-5%	-20%
CCOc1ccc(Nc2oc(Cc3ccccc3)nc2C#N)cc1	5%	2%	?	-14%	?	3%	-11%	?
Cc1cccc(-c2cnn(-c3cccc([N+](=O)[O-])c3)c2N)c1	32%[activator]	0%	-9%	-5%	?	i	16%	?
CN(C)c1cccc(C(=O)NCc2ccc(Cl)cc2)c1	66%[activator]	4%	-20%	-2%	40µM*	2%	0%	?
CCCc1cc(-c2nc(N)ncc2-c2ccc3c(c2)OCCCO3)c(O)cc1OC	-6%	-11%	?	-17%	-21%[59 µM]	-1%	-3%	?
Cn1c(SCC(=O)NCc2ccco2)nnc1-c1cccs1	23%	-13%	19%	-1%	9%[59 µM]	-9%	0%	6%
N#Cc1nc(COc2ccc(Br)cc2)oc1N1CCN(Cc2ccccc2)CC1	3%	44%[activator]	-25%	-10%	32µM*	-7%	-5%	-1%[11.4 µM]
CCOC(=O)c1cc(-c2ccccc2)n(CCC(=O)N2CCN(c3ccccc3OC)CC2)c1C	-7%	9%	?	-13%	50µM*	-1%	7%	?
FC(F)(F)c1cccc(NC(=S)NNC(=S)Nc2ccc(Cl)cc2)c1	nt	nt	nt	-19%	20µM*	nt	nt	nt
Cc1ccc(NC(=O)c2ccccc2)cc1-n1cnnn1	26%	-3%	44%[activator]	-9%	14µM*	-1%	0%	-7%
O=S(=O)(NCC(O)COCc1ccco1)c1cccs1 (configuration not stated)	22µM*	?	-18%	-14%	-41%[59 µM]	?	-2%	?
Cc1oc(-c2cccc(C(F)(F)F)c2)nc1CN1CCOCC1	26%	4%	27%	-10%	nt	-9%	-2%	-13%
Cn1c(/C=C(\C#N)C(N)=S)ccc1-c1ccc(Br)cc1	?	?	9%	-8%	nt	i	-2%	?
O=c1[nH]c(SCC2CCCCO2)nc2ccccc12 (configuration not stated)	-9%	-8%	56%	-5%	-4%[59 µM]	-1%	-2%	-4%
CC(Cc1ccccc1)N1C(=O)c2cccc([N+](=O)[O-])c2C1=O (configuration not stated)	5%	3%	-39%	-10%	-99%	10%	6%	?
COc1ccc(OC)c(Cc2nnc(CCC(=O)N3CCCCCC3)o2)c1	26%	2%	7%	-10%	nt	-8%	0%	-16%
CC(C)n1cnc2c(Nc3cccc(Cl)c3)nc(N(CCO)CCCO)nc21	-1%	-4%	-5%	2%	-34%[59 µM]	-19%	8%	?
COc1cccc(C(=O)NCc2ccc3[nH]c(C)cc3c2)c1	17%	6%	20%	2%	35µM*	i	2%	-33%
Cc1c(N=C2NC(=O)C(CC(=O)Nc3ccccc3)S2)c(=O)n(-c2ccccc2)n1C (configuration not stated)	16%	-3%	45%[activator]	-2%	-22%[59 µM]	7%	14%	-5%
COc1ccccc1NC(=O)C1=C(C)Nc2nc3ccccc3n2C1c1cccs1 (configuration not stated)	21%	15%	17%	-4%	-5%	-2%	0%	-6%
O=C(CN1CCCc2ccccc21)NCCc1ccc(F)cc1	6%	7%	-1%	-3%	12%[59 µM]	0%	-7%	-34%
COc1ccccc1-c1nnc(NC(=O)c2ccc(S(=O)(=O)N3CCCC3)cc2)o1	39%[activator]	-1%	45%[activator]	-5%	78%[activator]	4%	-2%	-13%
CCOC(=O)c1cnc(N2CCN(c3ccc(C)cc3C)CC2)c2ccccc12	-14%	0%	95%[activator][57 µM]	-3%	73%[activator][59 µM]	-2%	-6%	80%[activator]
Cn1cccc1Cc1nnc(SCC(=O)N2CCc3ccccc32)n1CCc1ccccc1	5%	6%	-5%	-1%	?	-7%	6%	?
CC1(C)Cc2nc3sc4c(=O)[nH]cnc4c3cc2CS1	-9%	0%	21%	0%	?	-7%	38%[activator]	-14%
O=C(/C=C/c1ccc(Cl)cc1)N1CCN(c2ccc(Cl)cc2[N+](=O)[O-])CC1	1%	-13%	?	-5%	?	5%	17%	?
Cc1nnc(SCC(=O)N2N=C(c3ccc(Cl)cc3)CC2c2ccco2)[nH]c1=O (configuration not stated)	?	8%	7%	-10%	?	-13%	-9%	?

Full records as entered above.
Cc1cccc(-c2cnn(-c3cccc([N+](=O)[O-])c3)c2N)c1 in the list: Pol iota inh: 32%[activator]; Pin1 inh: 0%; HP1b binding inh: -9%; BLM inh: -5%; G9a block: ?; Tb PGK inh: i; GLS inhibitor: 16%; JMJD2A Tudor inh: ?
O=C(O)c1ccc(NS(=O)(=O)c2cccc3cccnc23)cc1 in the list: Pol iota inh: 6%; Pin1 inh: -1%; HP1b binding inh: 55%[activator]; BLM inh: -3%; G9a block: ?; Tb PGK inh: 9%; GLS inhibitor: -3%; JMJD2A Tudor inh: -14%
CC(Cc1ccccc1)N1C(=O)c2cccc([N+](=O)[O-])c2C1=O (configuration not stated) in the list: Pol iota inh: 5%; Pin1 inh: 3%; HP1b binding inh: -39%; BLM inh: -10%; G9a block: -99%; Tb PGK inh: 10%; GLS inhibitor: 6%; JMJD2A Tudor inh: ?

Quoted at random: 2 compounds from above.
SMILES	Pol iota inh	Pin1 inh	HP1b binding inh	BLM inh	G9a block	Tb PGK inh	GLS inhibitor	JMJD2A Tudor inh
CC(C)n1cnc2c(Nc3cccc(Cl)c3)nc(N(CCO)CCCO)nc21	-1%	-4%	-5%	2%	-34%[59 µM]	-19%	8%	?
O=S(=O)(NCC(O)COCc1ccco1)c1cccs1 (configuration not stated)	22µM*	?	-18%	-14%	-41%[59 µM]	?	-2%	?

Assay outcomes (PubChem BioAssay)
